Screens as filed in PubChem.
Cardiac RTF inh: cardiac RTF calcium desensitization; IANBD-labeled cardiac RTF, Ca2+ fluorescence; AID 493244; inhibition, % at 7.15 µM; P19429+P45379; 0.12% of 340,000 active;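 active means inhibition above the mean inhibition of all tested compounds plus 3 SD, cut at about 17% in these data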;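 further: assay run at fixed EC70 calcium of 1.6 mM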
HTR5A ag ctr: HTR5A agonism, opioid heterodimer counter-screen; HTR5A agonist assay, luminescence, cell-based; activation, % at 9.3 µM; P47898; 0.61% of 340,000 active; in the data active means activation mostly above about 9.5%, no sharp cut-off; inactive means mostly below about 7.6%;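 further: 0% = cells with vehicle only and 100% = reference agonist; strong numbers were not always called active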
Target sequence (P47898 whole entry, looked up): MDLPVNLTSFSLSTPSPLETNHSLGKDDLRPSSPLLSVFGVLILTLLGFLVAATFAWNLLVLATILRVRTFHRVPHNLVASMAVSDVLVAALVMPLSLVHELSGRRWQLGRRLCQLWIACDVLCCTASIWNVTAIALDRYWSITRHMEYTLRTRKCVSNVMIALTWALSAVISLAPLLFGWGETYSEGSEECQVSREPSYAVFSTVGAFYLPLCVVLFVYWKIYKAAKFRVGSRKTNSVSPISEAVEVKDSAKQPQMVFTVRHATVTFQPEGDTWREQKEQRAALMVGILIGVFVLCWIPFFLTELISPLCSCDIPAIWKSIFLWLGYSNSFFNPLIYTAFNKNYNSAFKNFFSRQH
CAL-PDZ inh HTS: inhibitors of human CAL PDZ peptide binding; Q9HD26; purified CAL PDZ, TMR-peptide fluorescence polarization, 1 h; inhibition, % at 24.9 µM; 0.92% of 300,000 active; AID 602252;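 active means mean inhibition of at least 30% with at least half of replicates also reaching 30%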;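 further: 0% = DMSO neutral control and 100% = excess unlabeled competitor peptide PRC23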
V-ATPase pH: regulators of yeast V-ATPase proton transport | S. cerevisiae, pHLuorin cytosolic pH fluorescence | response, % at 10 µM | 0.37% of 350,000 active | AID 504577; in the data active means response mostly above about 7.3%, no sharp cut-off; inactive means mostly below about 5.4%; further: actives read high; inactives centre near 0; some compounds called inactive have numbers as strong as hits; reference of the scale not given here
cardiac RTF act: increases calcium sensitivity of human cardiac regulated thin filaments; P19429+P45379; IANBD-labeled TnC RTF fluorescence at EC20 calcium; 0% EC20 calcium, 100% full calcium; activation, % at 7.2 µM; 0.24% of 340,000 active;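 active means activation above the mean over all tested compounds plus 3 SD, cut at about 30% in these data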;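 further: rise in fluorescence read as greater calcium sensitivity of cardiac thin filaments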
HTR5A inv ag: counter-screen for OPRM1-OPRD1 inverse agonists: human HTR5A inverse agonism; HTR5A cell line, luminescence; inhibition, % at 9.3 µM; AID 504634; P47898; 0.083% of 340,000 active; in the data active means inhibition mostly above about 23%, no sharp cut-off; inactive means mostly below about 18%;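 further: 0% = cells with DMSO and 100% = no-cell wells with DMSO; some compounds called inactive have numbers as strong as hits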
* = called active by the depositor; nt = not tested or not shown; & = joins results of further samples. An excerpt; the hit share may differ from the screen's.

The opening 13 compounds, ahead of the listing:
Compound | Cardiac RTF inh | HTR5A ag ctr | CAL-PDZ inh HTS | V-ATPase pH | cardiac RTF act | HTR5A inv ag
Cc1cnc(C(=O)NCCc2ccc(S(=O)(=O)NC(=O)NC3CCCCC3)cc2)cn1 | 6 | 3 | -5 | 8 | -1 | 10
O=S(=O)(Nc1nnc(-c2ccccc2)s1)c1ccc(Cl)cc1 | -11 | 0 | -3 | 4 | 0 | 19
O=C(c1ccc(OCCN2CCCCC2)cc1)c1c(-c2ccc(O)cc2)sc2cc(O)ccc12 | 8&7 | 1&-3 | -4&-1 | 0&0 | 3&-2 | 14&1
Cc1ccc2cc(C)c3nnc(SCC(=O)N4CCN(C(=O)c5ccco5)CC4)n3c2c1 | -6 | 3 | -5 | -4 | 3 | -11
CCn1cc(C(=O)O)c(=O)c2cc(F)c(N3CCN(C)CC3)cc21 | 5 | -8 | 1 | -2 | 1 | 3
O=C(NC1CCC(Oc2ccc(C(=O)O)cc2)CC1)NC12CC3CC(CC(C3)C1)C2 (stereo not drawn) | -3 | 0 | 1 | -1 | -6 | -1
CCN(CC)C(=S)SSC(=S)N(CC)CC | 9 | 1 | -7 | 3 | -2 | -7
C(=C\c1ccccc1)/CN1CCN(C(c2ccccc2)c2ccccc2)CC1 | -2 | 3 | -2 | -1 | 1 | 8
Cc1ccc(C)n1-c1sccc1C(=O)O | 65* | 0 | -2 | 5 | -31 | 4
CC(C)NC[C@H](O)COc1cccc2[nH]ccc12 | 11 | 7 | -1 | 3 | 3 | -24
CNNCc1ccc(C(=O)NC(C)C)cc1 | 7 | 4 | 1 | -5 | -2 | 11
C#C[C@]1(O)CC[C@H]2[C@@H]3CCC4=C(CCC(=O)C4)[C@H]3CC[C@@]21C | 0 | 0 | 0 | -4 | 11 | -3
CCCSc1ccc2nc(NC(=O)OC)[nH]c2c1 | 11 | 5 | 3 | 0 | 1 | -19

All compounds of this part, from the start:
Compound | Cardiac RTF inh | HTR5A ag ctr | CAL-PDZ inh HTS | V-ATPase pH | cardiac RTF act | HTR5A inv ag
Cc1cnc(C(=O)NCCc2ccc(S(=O)(=O)NC(=O)NC3CCCCC3)cc2)cn1 | 6 | 3 | -5 | 8 | -1 | 10
O=S(=O)(Nc1nnc(-c2ccccc2)s1)c1ccc(Cl)cc1 | -11 | 0 | -3 | 4 | 0 | 19
O=C(c1ccc(OCCN2CCCCC2)cc1)c1c(-c2ccc(O)cc2)sc2cc(O)ccc12 | 8&7 | 1&-3 | -4&-1 | 0&0 | 3&-2 | 14&1
Cc1ccc2cc(C)c3nnc(SCC(=O)N4CCN(C(=O)c5ccco5)CC4)n3c2c1 | -6 | 3 | -5 | -4 | 3 | -11
CCn1cc(C(=O)O)c(=O)c2cc(F)c(N3CCN(C)CC3)cc21 | 5 | -8 | 1 | -2 | 1 | 3
O=C(NC1CCC(Oc2ccc(C(=O)O)cc2)CC1)NC12CC3CC(CC(C3)C1)C2 (stereo not drawn) | -3 | 0 | 1 | -1 | -6 | -1
CCN(CC)C(=S)SSC(=S)N(CC)CC | 9 | 1 | -7 | 3 | -2 | -7
C(=C\c1ccccc1)/CN1CCN(C(c2ccccc2)c2ccccc2)CC1 | -2 | 3 | -2 | -1 | 1 | 8
Cc1ccc(C)n1-c1sccc1C(=O)O | 65* | 0 | -2 | 5 | -31 | 4
CC(C)NC[C@H](O)COc1cccc2[nH]ccc12 | 11 | 7 | -1 | 3 | 3 | -24
CNNCc1ccc(C(=O)NC(C)C)cc1 | 7 | 4 | 1 | -5 | -2 | 11
C#C[C@]1(O)CC[C@H]2[C@@H]3CCC4=C(CCC(=O)C4)[C@H]3CC[C@@]21C | 0 | 0 | 0 | -4 | 11 | -3
CCCSc1ccc2nc(NC(=O)OC)[nH]c2c1 | 11 | 5 | 3 | 0 | 1 | -19
CCCNCC(O)COc1ccccc1C(=O)CCc1ccccc1 (stereo not drawn) | 13 | 2 | 3 | -3 | -4 | 21
O=C(NCC1CCCCN1)c1cc(OCC(F)(F)F)ccc1OCC(F)(F)F (stereo not drawn) | 0 | -1 | -2 | 16 | 7 | 21
CNC[C@H](O)c1cccc(O)c1 | -1 | 4 | 0 | 0 | 1 | -13
CC(C)[N+]1(C)[C@@H]2CC[C@H]1CC(OC(=O)C(CO)c1ccccc1)C2 (stereo partly drawn) | 5&12&12 | 2&2&0 | 0&-3&19 | 3&-36&-4 | 4&-3&0 | 1&-8&-11
C#C[C@]1(O)CCC2C3CCC4=CC(=O)CC[C@@H]4C3CC[C@@]21C (stereo partly drawn) | 3 | 0 | -6 | -69 | 1 | 0
CC(C)NCC(O)COc1ccc(COCCOC(C)C)cc1 (stereo not drawn) | 10 | -2 | -7 | -2 | 1 | 9
CC(=O)CC(c1ccccc1)c1c(O)c2ccccc2oc1=O (stereo not drawn) | 11&-7&3 | 4&2&2 | -3&4&2 | 7&2&-5 | 8&4&-2 | -4&-8&-6
COc1cccc(Nc2nc(NCC3CCCO3)c3ccccc3n2)c1 (stereo not drawn) | -11 | -1 | -4 | 5 | -1 | -17
O=C1C(CCS(=O)c2ccccc2)C(=O)N(c2ccccc2)N1c1ccccc1 (stereo not drawn) | -9 | 4 | -5 | -3 | -1 | -28
NCCCN1CCOCC1 | -4 | -11 | nt | -1 | 8 | 29
Cc1c(N)c(=O)n(-c2ccccc2)n1C | -9 | 2 | -1 | 9 | -9 | -16
CCN1CCN(C(=O)N[C@@H](C(=O)N[C@@H]2C(=O)N3C(C(=O)O)=C(CSc4nnnn4C)CS[C@H]23)c2ccc(O)cc2)C(=O)C1=O | 0 | 4 | -4 | -2 | 7 | -1
COc1cc2nc(N3CCN(C(=O)c4ccco4)CC3)nc(N)c2cc1OC | -10 | 1 | -2 | 2 | 4 | -6
